ClpP mod: qHTS Assay for Activators of ClpP. ATP-dependent Clp protease proteolytic subunit (Bacillus subtilis (strain 168)), P80244. purified B. subtilis ClpP, FRET peptide cleavage, 20 min. Potency, µM (titrated, usually from 57.5 µM), for the others: at the highest dose activity change, negative = active. 1.9% of 340,000 active; active = well fitted falling curve with a large enough effect; inconclusive = small, poorly fitted or top-dose-only effect; inactive = no such curve, though single readings can be large or run the other way; further: potency means the concentration at half of the fitted maximal effect; the source files actives as falling curves though it sought activators and does not explain the sign; nearly all actives have a fitted effect of over 65% in size; many hits overshoot -100%
Target sequence (P80244 whole entry, looked up): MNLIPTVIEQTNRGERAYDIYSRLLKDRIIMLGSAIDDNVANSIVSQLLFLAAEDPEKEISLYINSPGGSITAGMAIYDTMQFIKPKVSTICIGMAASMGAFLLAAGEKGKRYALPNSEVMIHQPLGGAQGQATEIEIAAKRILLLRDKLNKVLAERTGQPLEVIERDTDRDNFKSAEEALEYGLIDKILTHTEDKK
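Purified B. subtilis ClpP, 10 microg/mL final in Tris/HCl pH8 with KCl, BSA, glycerol and Tween-20, cleaved an Abz/nitrotyrosine-quenched decapeptide. Fluorescence (ex 320, em 430) was read at 0 and 20 min at room temperature. Delta was normalized to 5.8 microM ADEP and DMSO/no-enzyme controls.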
TRPML1 ag: qHTS for Agonists of the Human Mucolipin Transient Receptor Potential 1 (TRPML1); 0.12% of 410,000 active; activation, % (no concentration beside the values); TRPML1-expressing cells, Ca2+ dye fluorescence, FDSS; host cell line not named in the record; reference of the full effect not given here; Mucolipin-1 (Homo sapiens), Q9GZU1; in the data active = activation above about 50%; inconclusive = about 30% to 50%; inactive = below about 30%; further: 0% is about no effect; the text of the record puts the active cut at 80%
Target sequence (Q9GZU1 whole entry, looked up): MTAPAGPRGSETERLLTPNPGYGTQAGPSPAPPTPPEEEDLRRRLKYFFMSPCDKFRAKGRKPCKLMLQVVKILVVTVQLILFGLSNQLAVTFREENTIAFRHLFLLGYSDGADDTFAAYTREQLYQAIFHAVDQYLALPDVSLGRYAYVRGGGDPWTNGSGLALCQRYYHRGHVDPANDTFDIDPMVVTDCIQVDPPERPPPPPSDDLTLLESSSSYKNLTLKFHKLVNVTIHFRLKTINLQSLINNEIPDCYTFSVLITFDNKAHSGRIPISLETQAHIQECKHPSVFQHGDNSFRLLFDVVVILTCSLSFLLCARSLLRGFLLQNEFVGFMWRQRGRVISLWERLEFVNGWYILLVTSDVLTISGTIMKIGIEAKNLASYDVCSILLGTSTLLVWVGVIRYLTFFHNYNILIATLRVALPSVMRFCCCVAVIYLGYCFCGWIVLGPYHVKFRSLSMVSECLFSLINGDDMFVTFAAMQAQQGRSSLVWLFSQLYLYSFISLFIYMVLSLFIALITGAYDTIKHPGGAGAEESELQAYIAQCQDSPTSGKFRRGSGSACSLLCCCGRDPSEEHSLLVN
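Tetracycline-induced TRPML1-DL cells are seeded and incubated overnight before loading with a no-wash Ca2+ dye and quencher. Agonist activity is taken from the 110 s fluorescence read following compound pin-transfer on an FDSS, before EC80 54-4 challenge.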
TRPV1 PAM: HTS Assay for Compounds that Act as Potentiators of the Vanilloid Receptor 1; potentiation, % at 8.33 µM; AID 540277, 2011; TRPV1-expressing cells, Fluo-8 calcium influx, capsaicin EC20 potentiation; host cell line not named in the record; control for the full effect not named in the record; 0.02% of 320,000 active; active means potentiation above 80%; inconclusive means 30% to 80%; inactive means below 30%; further: 0% is about no effect
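TRPV1-expressing cells were cultured overnight at 35.5C and loaded with Fluo-8 calcium dye for 40 to 90 min at room temperature. After a 10 s baseline, compound was added and calcium influx was read kinetically for 3 min (ex 480/em 520 nm).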
Menin MLL FP FL: qHTS Assay for Inhibitors Targeting the Menin-MLL Interaction in MLL Related Leukemias: Competition With Fluorescein Labeled MLL-derived Peptide; FP activity change, % at 61.4 µM; Fluorescence polarization, fluorescein-MLL peptide displacement from menin; AID 1766, 2009; 290,000 tested, under 10 active; inconclusive = falling polarisation curve, or a change in total fluorescence; inactive = total fluorescence flat and polarisation flat or rising; no compound was filed as active; the % refers to the polarisation; negative = inhibition;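 further: % of control where 0% means no effect; inhibitors lower the polarisation; unlabelled MLL peptide was the positive control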
TRPML1 inh: qHTS for Inhibitors of the Human Mucolipin Transient Receptor Potential 1 (TRPML1). 0.02% of 390,000 active. Mucolipin-1 (Homo sapiens), Q9GZU1. activity change, negative = inhibition, % (test concentration not listed). TRPML1-inducible cells, Ca2+ dye fluorescence, FDSS; active compounds read low; inhibition of EC80 agonist-evoked calcium signal; in the data active means activity change below about -50%; inconclusive means about -30% to -50%; inactive means above about -30%;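 further: stimulus is agonist 54-4 at its EC80 concentration; on the % scale 0 is the no-effect control and ±100 the full control effect; compound concentration not given in the record; the text of the record puts the active cut at -80%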
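Calcium fluorescence in TRPML1-DL cells induced overnight with Tet: a 110 s read after compound pin addition, then a 110 s antagonist read after challenge with 54-4 at 4 uM final (EC80).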
Sfp inh: qHTS Assay for Inhibitors of Bacillus subtilis Sfp phosphopantetheinyl transferase (PPTase); Potency, µM, inactives show max response, negative = inhibition, hits mostly inhibitors; 4'-phosphopantetheinyl transferase ffp (Bacillus subtilis), Q9F4F7; AID 1490, 2009; Biochemical Sfp PPTase activity, qHTS; 3.5% of 310,000 active; active means well fitted inhibition curve with a large enough effect; inconclusive means small, poorly fitted or top-dose-only effect, or another doubt; inactive means no such curve, though single readings can be large or run the other way;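 further: the enzyme is Sfp with the accession as filed and its product quenches rhodamine fluorescence; potency means the concentration at half of the fitted maximal effect; 0% = enzyme reaction without inhibitor and -100% = no enzyme wells; top concentration of the series not given in the record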
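Fluorescence-quenching assay: 15 nM Sfp-PPTase preincubated 15 min at room temperature with compound, then 5 uM rhodamine-CoA and 12.5 uM BHQ-2-labelled YbbR peptide added. Fluorescence (ex 525/em 598 nm) read at start and after 30 min; difference gives rate.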
PINK1 expr mod: A Quantitative High throughput Screen to Identify Chemical Modulators of PINK1 Expression; PINK1 immunofluorescence, high-content cytometry, 24 h; Potency, µM (doses to about 76.6 µM), without a hit: at the highest dose activation (PINK1 increase), most hits filed as activators; 0.2% of 410,000 active; AID 624263, 2012; active = well fitted activation curve with a large enough effect; inconclusive = small, poorly fitted or top-dose-only effect; inactive = flat fitted curve, though single readings scatter; cell line not stated here;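 further: potency means the concentration at half of the fitted maximal effect; % of control where 0% means no effect; nearly all actives have a fitted effect of over 65% in size; a mitochondrial uncoupler was the plate control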
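PINK1 protein level read as immunofluorescence by microplate cytometer in a fixed, stained stable cell line after 24 h exposure to five compound concentrations, with CCCP as control.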
* marks the source's active call; other numbers are inactive results; ? = inconclusive; . = no result given; & = joins results of further samples; [ ] = remark or other dose.

SMILES	ClpP mod	TRPML1 ag	TRPV1 PAM	Menin MLL FP FL	TRPML1 inh	Sfp inh	PINK1 expr mod
Cc1noc(C)c1C(=O)Nc1c(F)cc(F)cc1Br	-0.3%	-0.1	4	1.2	-8	2%	5.1%[38.3 µM]
Cc1cc(CO)nn1-c1ccc([N+](=O)[O-])cc1	.	2.2	1	1.1	12	18%	-0.8%
O=C(CN1c2ccccc2Sc2ccccc21)N/N=C/c1ccc(Cl)cc1Cl	1.3%	0.6	0	5.3	10	18%	0.1%
CC1CCN(c2ccc(NC(=O)Cn3c(=O)oc4ccccc43)cc2)CC1	0.9%	1.0	-2	.	-18	5%	-0.2%
O=S(=O)(c1cccc2nsnc12)N1CCNCC1	.	0.9	0	1.7	15	14%	0.6%
CN(C(=S)NC(=O)c1ccccc1)c1c(N)n(Cc2ccccc2)c(=O)[nH]c1=O	0.4%	-0.1	13	-2.8	13	-15%	1.1%
Cc1c(N2C(=O)CSC2=S)c(=O)n(-c2ccccc2)n1C	.	3.5	15	9.3	-17	-18%	9.1%
O=C(COC(=O)c1cccnc1Cl)NCCc1ccccc1	-1.4%	-0.4	0	.	-13	.	2.1%
C1CCC2=NCCCN2CC1	-1.0%	-0.6	?	1.8	0	-1%	6.8%[38.3 µM]
Cc1ccc2c(C)c(C)c(=O)n(C)c2c1	-22%	0.6	.	.	?	.	-3.7%
COc1ccc(C(=O)COC(=O)[C@H](C)Nc2ccc(C(F)(F)F)cc2[N+](=O)[O-])cc1	-4.4%	0.3	-15	4.3	10	17%	6.1%
O=C(NCc1csc(-c2cccs2)n1)C1CCCCC1	.	0.0	-37	-3.6	-14	6%	-1.3%
COc1ccc(CCN2CC(C(=O)N3CCSCC3)CCC2=O)cc1 (centres undefined)	-2.0%	-0.2	2	-3.5	-14	4%	1.0%
CN(CCNC(=O)c1cc2c(-c3ccccc3F)nn(C)c2s1)C1CCCCC1	4.2%	0.9	-2	-0.3	-24	6%	2.5%
Cc1ccc(C)c(NC(=O)CSc2nnc(-c3ccccc3)n2N)c1	0.4%	0.3	14	-1.0	0	0%	0.6%
O=C(Nc1cc(Cl)cc(Cl)c1)Nc1cnccn1	-6.8%	-0.2	-5	.	-1	8%	29%
Cc1ccc(F)c(CNC(=O)C2CCC(=O)N(Cc3ccccn3)C2)c1F (centres undefined)	-3.7%	-0.1	-15	-10	9	13%	1.5%
C#CCNC(=O)C[C@@H]1C[C@@]2(C(=O)OCC)CCCC=C2N(Cc2ccc3c(c2)OCO3)C1=O	0.5%	63*	.	.	.	.	-0.5%
COc1ccc(N2CCN(c3ncccn3)CC2)cc1	-2.5%	-0.5	-2	2.5	-9	17%	.
O=Nc1c(O)[nH]c2ccc(Cl)cc12	0.4%	0.8	-4	0.4	13	2%	-1.2%
Cc1ccc(NC(=O)CN2CCCC2c2cccn2C)cc1C (centres undefined)	.	-0.7	.	.	8	.	4.8%
O=C(Cc1cccs1)NC(c1ccccc1)c1ccccc1	.	-0.2	2	-0.8	9	-15%	-0.2%
CC(C)(C)OC(=O)N1CC(O)CC1C(=O)OCC(=O)c1ccc(-c2ccccc2)cc1 (centres undefined)	-4.7%	1.2	6	2.9	18	-11%	0.9%
COc1cccc(Cn2c(-c3nonc3N)nc3ccccc32)c1	-5.9%	3.7	-9	13	2	?	3.6%
O=C(CN1CCN(c2ccc(Cl)cc2)CC1)Nc1ccc(F)cc1F	1.1%	0.4	.	.	12	.	-0.7%

(next part)
SMILES	ClpP mod	TRPML1 ag	TRPV1 PAM	Menin MLL FP FL	TRPML1 inh	Sfp inh	PINK1 expr mod
COc1ccc(C(O)c2nc(-c3cnc4ccccc4c3)cs2)cc1 (centres undefined)	-4.6%	-0.2	.	.	.	.	0.3%
Cc1c(OCC(=O)NCCCn2ccnc2)ccc2c3c(c(=O)oc12)CCCC3	4.0%	-0.2	19	.	8	12%	1.3%
COc1ccc(NC(=O)c2cccnc2N2CCOCC2)cc1	2.4%	0.0	1	-0.7	23	18%	-1.7%
O=C(O)/C=C/C(=O)c1c(-c2ccccc2)[nH]c2ccccc12	1.9%	0.4	-1	5.2	-6	-18%	1.3%
CC(OC(=O)c1ccccc1C(=O)N(C)c1ccccc1)C(=O)Nc1ccccc1[N+](=O)[O-] (centres undefined)	0.4%	0.7	0	.	0	.	1.7%
C=CCn1c(-c2cccn(Cc3ccccc3)c2=O)n[nH]c1=S	229%	0.2	.	0.1	5	-6%	-0.6%
COC(=O)c1ccc(C(=O)Nc2ccc3nc(-c4ccncc4)[nH]c3c2)cc1	0.6%	0.5	-4	1.5	22	7%	-2.1%
COc1ccccc1NC(=O)COC(=O)c1cc2ccccc2cc1O	1.0%	1.3	7	.	2	.	9.4%
CCCc1cnc2c(c1SCC(=O)Nc1ccc(C)c(Cl)c1)c(=O)n(C)c(=O)n2C	-0.4%	-0.2	.	.	-11	.	3.0%
CC1=C(C(=O)N(C)C)CC(CC(=O)NC(c2ccccc2)c2ccccc2)C(=O)N1CCCN1CCCC1=O (centres undefined)	2.2%	-0.5	.	.	-5	.	1.4%
COCc1c(Br)c(C)nc(OCC(=O)N/N=C/c2ccco2)c1C#N	-0.2%	0.9	7	-1.1	-14	-11%	0.0%
C/C=C1\COC(C(=O)NC)(C(F)(F)F)C=C1C=C1CCCCC1 (centres undefined)	.	1.2	.	-2.3	6	-7%	.
Cc1cc2ncn(-c3ncnc4scc(-c5ccccc5)c34)c2cc1C	-3.8%	0.7	5	1.3	15	2%	0.2%
COc1cccc(CNC(=O)CC(c2ccc(F)cc2)N2Cc3ccccc3C2=O)c1 (centres undefined)	2.2%	0.3	.	.	1	.	6.4%
Cc1cc(C)c(NC(=O)C(C)n2c(=O)c(C(F)(F)F)nc3ccccc32)c(C)c1 (centres undefined)	-2.5%	-0.3	.	.	-6	.	0.6%
O=C(NCC1CCCO1)c1cc2n(n1)C(C(F)(F)F)CC(c1ccc(Br)cc1)N2 (centres undefined)	1.0%	-0.5	9	4.7	-3	-12%	-16%[38.3 µM]
O=C(N/N=C/c1ccc([N+](=O)[O-])o1)C1CCCC1	-0.8%	1.1	22	.	1	-3%	14%
O=C(CS(=O)CC(=O)N(c1ccccc1)C(C(=O)NC1CCCCC1)c1ccco1)Nc1ccc(F)cc1 (centres undefined)	1.1%	0.2	13	2.6	-13	11%	8.3%
CCOC(=O)CSc1nc2cc(OC)c(OC)cc2c2nc(-c3ccccc3)nn12	?	-0.7	.	.	-3	.	-0.4%
COc1cccc(NC(=O)C2CCN(S(=O)(=O)c3ccc4c(c3)NC(=O)CO4)CC2)c1	1.4%	-0.8	0	.	9	10%	0.7%
O=C1COc2ccc(N3C(=O)c4ccccc4C3=O)cc2N1	.	.	-2	0.0	.	20%	.
CC(C)c1ccc(C2C(C(=O)c3ccco3)=C(O)C(=O)N2CCN2CCOCC2)cc1 (centres undefined)	0.6%	-0.4	2	0.7	2	-17%	-1.2%
Cn1c(=O)c2cc(NC(=O)CC(C)(C)C)ccc2n1-c1ccccc1F	4.1%	0.4	.	.	.	.	2.2%
Cc1nn(C)cc1CNC(=O)C1CCC(=O)N(Cc2cccc(C(F)(F)F)c2)C1 (centres undefined)	25µM*	0.2	-1	.	19	4%	-0.6%
O=C(CCCn1c(=S)[nH]c2cc3c(cc2c1=O)OCO3)NCc1ccco1	-1.9%	-0.3	9	-3.5	19	10%	8.8%

Other records
SMILES	ClpP mod	TRPML1 ag	TRPV1 PAM	Menin MLL FP FL	TRPML1 inh	Sfp inh	PINK1 expr mod
Cc1cccc(-c2nsc(SCC(=O)N3CCCC3)n2)c1	1.2%	-0.1	-17	1.7	6	?	-1.9%
COc1ccc(CNCc2cn(-c3cccc(F)c3)nc2-c2ccc(C)o2)cc1	3.9%	1.9	-3	-1.5	26	?	-0.4%
Cc1sc(NC(=O)CSc2nnc(C(C)C)n2C)c(C#N)c1C	-3.9%	1.4	3	2.6	9	14%	-1.3%
Cc1ccc(C)c(Cn2c(=O)n(CCC(=O)NCc3ccco3)c(=O)c3sccc32)c1	-0.5%	0.0	-11	2.3	26	-18%	3.0%[38.3 µM]
O=C(NNC(=S)NCc1ccco1)c1cccs1	9.2%	-0.5	9	5.6	-4	29%	-2.1%
COc1ccc(Cn2c(=O)sc3ccccc32)cc1OC	-2.0%	0.2	5	-2.1	11	-3%	-1.1%
COCc1c(C(=O)N/N=C/c2ccncc2)nnn1-c1nonc1N	-2.2%	0.7	-12	-0.4	-14	7%	-0.3%
Cc1noc(C)c1C(=O)N1CCC2(CCCN(C(c3ccccc3)c3ccccc3)C2)CC1	.	.	.	-4.9	.	-9%	-0.2%
CC1(C)Cc2ccccc2-c2nnc(C(F)(F)F)n21	1.6%	0.6	-1	7.0	-24	15%	-1.6%
CCOc1ccccc1NC(=O)CN1CCN(Cc2ccccc2)CC1	-0.7%	1.3	-9	0.5	-6	3%	1.3%
O=C(Nc1ccc(-c2cn3c(n2)SCC3)cc1)c1ccco1	-1.3%	-0.5	.	8.7	1	-11%	3.0%
C=CCc1ccccc1OCC(O)CN1CCN(c2ccccc2OC)CC1 (centres undefined)	1.2%&0.4%	0.5&0.1	28	4.9	21&-7	-16%	0.2%[38.3 µM]
c1ccc(-n2nnnc2Sc2ncnc3sc4c(c23)CCCC4)cc1	?	-0.7	-12	.	-2	-7%	0.0%
CC(C)CNC(=O)C(=O)Nc1cc2c3c(c1)C(C)C(=O)N3CCC2 (centres undefined)	-0.6%	0.5	-14	.	-18	9%	1.3%
